Compound activity from PubChem.
UCH37 DUB inh – inhibitors of human UCH37 deubiquitinase, primary screen, biochemical, Ub-AMC cleavage, fluorescence | Ubiquitin carboxyl-terminal hydrolase isozyme L5 (Homo sapiens), Q9Y5K5 | purified proteasome/UCH37 | inhibition, % (concentration not given with the values) | 0.33% of 330,000 active;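 active means mean of two replicates above 20%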;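 further: 0% = compound-free wells with enzyme and 100% = wells lacking proteasome; stock transfer was 100 nL into about 20 µL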
Target sequence (Q9Y5K5 whole entry, looked up): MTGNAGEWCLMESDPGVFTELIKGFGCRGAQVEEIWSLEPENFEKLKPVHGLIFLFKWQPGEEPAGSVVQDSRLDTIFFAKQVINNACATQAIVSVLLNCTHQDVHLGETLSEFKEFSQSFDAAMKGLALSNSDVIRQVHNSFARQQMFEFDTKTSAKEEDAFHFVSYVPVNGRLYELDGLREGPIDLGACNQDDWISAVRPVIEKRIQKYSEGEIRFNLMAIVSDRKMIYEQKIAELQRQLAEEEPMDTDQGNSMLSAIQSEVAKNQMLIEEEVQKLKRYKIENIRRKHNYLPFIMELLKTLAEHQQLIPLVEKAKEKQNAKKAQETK
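assay system = human UCH37 enzyme supplied as purified proteasome complex | amount = proteasome at 0.15 nM in the dispensed enzyme solution | schedule = 30 min compound-proteasome preincubation then 25 min substrate reaction, room temperature | measured by = fluorescence, ex 355 nm, em 460 nm | benchmarks = no-proteasome wells (full inhibition) and compound-free wells (no inhibition)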
T cruzi repl – inhibitors of intracellular T. cruzi growth, primary screen, luminescence, NIH3T3 host cells | 1.4% of 300,000 active | T. cruzi beta-gal in NIH3T3, 90 h | inhibition, % (no concentration beside the values);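 active means mean inhibition across valid replicates above about 55%, limit read from the data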;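 further: signal also drops with host cell toxicity which is not excluded here; 0% = plate median of DMSO wells and 100% = zero luminescence signal; higher percent means less beta-gal luminescence so fewer parasites; stock transfer was 50 nL into about 50 µL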
Beta cell apopt – inhibitors of cytokine-induced beta cell apoptosis, primary screen, luminescence; protection from apoptosis, % (test concentration not listed); AID 435005, 2010; 0.8% of 300,000 active; INS-1E cytokine-induced death, ATP luminescence, 48 h; percent of positive-control rescue, neutral wells zero;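 active means all replicates at 75% or more, or half of them and the mean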;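 further: 0% = cytokine-treated negative control wells and 100% = positive control rescue; higher means more ATP so stronger rescue from cytokine killing; wells of about 40 µL received 100 nL stock; the first replicate is given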
Ecoli growth – E. coli growth inhibition, primary screen, OD600; 0.21% of 330,000 active; OD600 absorbance (concentration not given with the values); Escherichia coli growth, 23 h; active compounds read low;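 active means OD600 absorbance below the run mean of sample wells minus 3.6 SD, in any replicate, cut at about 0.56 in these data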;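 further: stock transfer was 300 nL into about 60 µL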
MLL AF4-AF9 inh – inhibitors of AF4 peptide binding to AF9, primary screen, biochemical, AlphaScreen, biotin-AF4 peptide, FLAG-AF9, single point; Protein AF-9 (Homo sapiens), P42568; inhibition, % at 10 µM; 0.47% of 350,000 active; AID 651704, 2012;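 active means every replicate reaching a set inhibition limit, whatever the replicate mean, cut at about 25% in these data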;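 further: 0% = plate neutral control median and 100% = total signal loss; the record names both 10 and 1 µM as test concentration; the first replicate is given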
Target sequence (P42568 whole entry, looked up): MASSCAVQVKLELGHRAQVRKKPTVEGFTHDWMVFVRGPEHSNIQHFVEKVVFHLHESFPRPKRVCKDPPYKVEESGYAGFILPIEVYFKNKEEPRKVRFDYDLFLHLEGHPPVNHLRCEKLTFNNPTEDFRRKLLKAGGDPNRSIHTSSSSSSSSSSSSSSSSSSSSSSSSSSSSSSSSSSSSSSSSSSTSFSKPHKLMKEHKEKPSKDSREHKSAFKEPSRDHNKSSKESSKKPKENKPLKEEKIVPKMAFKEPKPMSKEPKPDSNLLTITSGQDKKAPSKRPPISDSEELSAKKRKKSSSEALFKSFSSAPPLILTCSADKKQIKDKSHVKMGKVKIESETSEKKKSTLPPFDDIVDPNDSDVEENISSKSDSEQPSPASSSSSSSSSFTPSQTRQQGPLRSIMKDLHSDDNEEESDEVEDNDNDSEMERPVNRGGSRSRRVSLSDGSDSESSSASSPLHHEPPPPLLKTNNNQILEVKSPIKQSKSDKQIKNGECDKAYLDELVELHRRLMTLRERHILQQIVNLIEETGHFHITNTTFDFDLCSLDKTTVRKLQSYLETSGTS
Bfl-1 A1 inh – caspase 3/7 activation in MEF A1-2A-BIM cells, primary screen, A1 inhibitor project, cell-based, luminescence, HTS. Caspase-Glo 3/7 luminescence, 3 h; percent of clofoctol response, vehicle zero. caspase activation, % (no concentration beside the values). 0.066% of 330,000 active. AID 2462, 2010;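 active means over half of replicate activation scores above 10%, or exactly half above 10 with the replicate mean above 10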;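 further: wells of about 30 µL received 50 nL stock; many hits fall short of the cut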
rRNA inh HTS – reduced GFP signal of wild-type E. coli, primary screen, bacterial rRNA inhibitor project, GFP/RFP fluorescence, OD600, single point; GFP signal change (wild-type ribosome), % (test concentration not listed); E. coli WT GFP vs humanized-ribosome RFP mutants, 24 h; active compounds read low; DMSO median 0, no signal -100; 1.6% of 350,000 active; AID 720706, 2013;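 active means significant combined selectivity score with lowered wild-type GFP, culture density cut under 30%, mutant RFP and density less affected; inactive means any of these conditions unmet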; further: one replicate is shown; some compounds called inactive have numbers as strong as hits
FGF22 binding – binders of human FGF22 protein, primary screen, FGF22 synaptogenesis inhibitor project, biophysical, thermal shift, single point; calls only at 9.99 µM; Fibroblast growth factor 22 (Homo sapiens), Q9HCT0; 1.5% of 340,000 active; recombinant FGF22 thermal shift, SYPRO orange fluorescence; percent of sucrose octasulfate shift, DMSO zero;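 active means melting point raised past a set limit in the mean and every replicate; three in four hits are not shown here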
Target sequence (Q9HCT0 whole entry, looked up): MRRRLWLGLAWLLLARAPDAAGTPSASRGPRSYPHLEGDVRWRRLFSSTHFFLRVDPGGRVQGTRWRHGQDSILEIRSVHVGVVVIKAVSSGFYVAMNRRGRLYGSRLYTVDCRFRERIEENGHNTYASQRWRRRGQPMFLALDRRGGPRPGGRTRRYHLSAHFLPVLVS
rRNA inh HTS OD600 – further read-out of rRNA inh HTS, marked with its call; OD600 change, %; measured here: OD600 growth;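 optical density of the mix in the first replicate; 0 = DMSO median and -100 = no signal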
rRNA inh HTS RFP – second read-out of rRNA inh HTS, no call of its own (marks repeat the call); RFP signal change, %; measured here: RFP humanized mutant strains;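 first replicate; 0 = DMSO median and -100 = no signal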
* hit, by the source's call; i = inactive; . = no result given.

Every second line gives: UCH37 DUB inh	T cruzi repl	Beta cell apopt	Ecoli growth	MLL AF4-AF9 inh	Bfl-1 A1 inh	rRNA inh HTS	rRNA inh HTS OD600	rRNA inh HTS RFP	FGF22 binding
> CC(OC(=O)C1CC1C)C(=O)Nc1ncc(Cl)cc1Cl (centres undefined)
 : 1.5	-12	-4	0.64	-1.9	-0.7	12	7	0.3	i
> C=CCc1c(C)nc2cc(-c3ccc(C)cc3)[nH]n2c1=O
 : -3.9	-9	-4	0.61	-1.1	-1.8	7	10	-0.5	i
> Cc1ccc2nc3[nH]c(=O)[nH]c(=O)c3c(N)c2c1
 : -143	.	.	0.67	-11	.	24	-7	-6.2	i
> Nn1c(SCc2c(F)cccc2F)nnc1-c1ccccn1
 : -0.8	-19	-9	0.67	6.0	-0.2	9	-1	1.5	i
> CCc1nc2ccc(C(=O)N(C)CC(=O)Nc3cccc(F)c3)cc2nc1CC
 : -2.9	.	1	0.7	-0.6	0.2	-3	1	-0.4	i
> Cc1ccc(CNC(=O)CSc2c3c(nc4cc(Cl)ccc24)CCCC3)o1
 : 8.1	-5	-2	0.72	.	0.6	.	.	.	.
> O=C(O)CSCC(=O)N(Cc1ccccc1)c1nc(-c2ccccc2)c(-c2ccccc2)s1
 : .	4	-3	.	4.0	1.4	-7	8	7.0	.
> O=C(COC(=O)c1ccc(F)c(S(=O)(=O)N2CCOCC2)c1)NCc1ccc2c(c1)OCO2
 : 4.2	.	-3	0.69	-1.8	0.3	-1	-18	-2.7	i
> Cc1cccc2sc(N(CCCN(C)C)C(=O)CCc3ccccc3)nc12
 : 3.0	62*	7	0.61	.	1.1	.	.	.	.
> Cc1ccc(S(=O)(=O)Cc2nnnn2-c2ccccc2)cc1
 : 2.5	-15	1	0.71	-2.0	1.1	1	3	-0.9	i
> Cc1nc(SCC(=O)N(C)Cc2ccco2)c2c(C)c(C)sc2n1
 : 2.6	8	3	0.67	.	1.2	.	.	.	.
> CCOc1ccc(NC(=O)CN(C)CC(=O)Nc2cc(Cl)ccc2C#N)cc1OCC
 : 0.5	-5	1	0.66	.	-0.4	.	.	.	.
> CCC(=O)Nc1nnc(-c2ccncc2)s1
 : -33	.	-3	0.65	.	-0.8	.	.	.	.
> Cc1ccc(S(=O)(=O)N2CCCCC2C(=O)N(C)c2ccccc2)cc1 (centres undefined)
 : 1.4	-12	-17	0.74	0.4	0.4	-10	-25	-1.7	i
> O=C(CCNC(=O)c1ccccc1Cl)NCC(c1ccco1)N1CCCC1 (centres undefined)
 : -2.0	-6	-2	0.7	1.5	0.3	2	5	-1.7	i
> CC1CC(C)CN(S(=O)(=O)c2cccc(C(=O)OCCN3CCCC3=O)c2)C1 (centres undefined)
 : -0.5	5	-2	0.8	.	0.5	.	.	.	.
> CN(C(=O)CCc1nc2ccccc2c(=O)[nH]1)C1CCS(=O)(=O)C1 (centres undefined)
 : 0.9	.	-8	0.72	2.9	0.0	5	8	12	i
> CN(C)C(=O)C#Cc1ccccc1
 : 4.3	-14	4	0.64	.	-1.1	17	-4	1.4	i
> COc1cccc(C(=O)Oc2ccc(/C=N/NC(=O)c3ccncc3)cc2OC)c1
 : .	-23	-4	.	1.6	0.1	1	4	-1.5	i
> Cc1ccc(C(=O)NCC(=O)NCC(=O)OCC(=O)c2ccc([N+](=O)[O-])cc2)cc1
 : 4.8	18	-6	0.68	.	-0.6	.	.	.	.
> Nc1ccc(C2CCCc3nonc32)c2nonc12 (centres undefined)
 : 3.2	1	-37	0.72	.	-0.3	.	.	.	.
> Cc1cc2c(cc1C)CSC(c1ccccc1OC(=O)C(C)(C)C)SC2
 : 2.1	-19	-1	0.74	.	-0.3	.	.	.	.
> OC(CNCC1CCCO1)Cn1c2ccc(Br)cc2c2cc(Br)ccc21 (centres undefined)
 : 5.3	55*	23	0.55*	.	-0.2	.	.	.	.
> Cc1nc2ccccc2n1CC(O)COC1CCCCC1 (centres undefined)
 : -1.3	-31	5	0.74	4.4	1.1	-20	-19	-11	i
> O=C(CSc1nnc2ccccn12)N1CCc2ccccc2C1
 : 1.6	-6	-5	0.67	.	0.4	-1	6	-0.6	.
> CC1=NC(C#N)=C(C#N)NC(C)(C)C1
 : 4.7	-2	-13	0.72	3.6	-0.6	16	9	3.0	i
> COc1cnc(-c2ccccc2)c(-c2ccccc2)n1
 : 5.6	8	.	0.63	.	0.2	-32*	-6.0*	-4.3*	i
> CCCSc1ccc([C@H]2N[C@@](Cc3ccccc3)(C(=O)OC)[C@H]3C(=O)N(CC)C(=O)[C@@H]23)cc1
 : -0.1	-13	2	.	-0.6	1.7	8	0	3.3	i
> COc1cc(NC(=O)c2cccs2)c(OC)cc1NC(=O)CCC(=O)Nc1ccc2ncccc2c1
 : -6.3	15	.	0.71	0.0	.	1	9	-0.2	i
> CC(C(=O)NCCN1CCOCC1)c1ccc([N+](=O)[O-])cc1 (centres undefined)
 : 1.3	-4	2	0.7	-3.1	0.1	16	12	3.4	i
> CC(OC(=O)/C=C/c1ccco1)C(=O)NC1CCCCC1C (centres undefined)
 : 7.8	.	2	0.71	-3.0	-0.2	13	14	2.2	i
> O=C(CSc1nnc(-c2ccc3c(c2)OCCO3)o1)NC1CCCCC1
 : 5.4	-6	1	0.77	.	-0.4	.	.	.	.
> Cc1ccc(NC(=O)c2cnc(SCC(=O)NCC3CCCO3)n(C)c2=O)cc1C (centres undefined)
 : -119	4	-10	0.68	0.7	0.2	4	6	0.2	i
> Cc1ccc(S(=O)(=O)NCC(=O)N2CCC(C)CC2)cc1
 : -0.3	-4	.	0.72	48*	-0.4	11	2	0.7	i
> COc1ccc(-c2csc(N(CC3CCCO3)C(=O)c3ccc(C)cc3)n2)cc1 (centres undefined)
 : 3.7	16	12	0.73	.	0.1	.	.	.	.
> Cc1nc(N/C(N)=N/S(=O)(=O)c2ccc([N+](=O)[O-])cc2)nc2ccccc12
 : 1.5	56*	-2	.	.	-0.2	.	.	.	.
> CCOC(=O)C(=O)NN=C(c1ccccc1)c1ccccc1
 : 6.6	1	-5	0.7	2.2	0.6	0	-7	-0.3	i
> CCOC(=O)c1c(NC(=O)Cn2c(C)nc3ccccc32)sc2c1CCC2
 : -5.1	28	-1	0.72	.	0.2	.	.	.	.
> COc1ccc(OCc2cccc(C(=O)Nc3cc(C)on3)c2)cc1
 : 3.8	-10	6	0.67	.	-0.8	.	.	.	.
> CCN(CC)CCN(Cc1cc2cc3c(cc2[nH]c1=O)OCCO3)C(=S)NC
 : -110	2	-5	0.63	-13	0.0	5	4	-0.5	i

An excerpt taken from the entries so far:
Every second line gives: UCH37 DUB inh	T cruzi repl	Beta cell apopt	Ecoli growth	MLL AF4-AF9 inh	Bfl-1 A1 inh	rRNA inh HTS	rRNA inh HTS OD600	rRNA inh HTS RFP	FGF22 binding
> Cc1ccc(NC(=O)c2cnc(SCC(=O)NCC3CCCO3)n(C)c2=O)cc1C (centres undefined)
 : -119	4	-10	0.68	0.7	0.2	4	6	0.2	i
> Cc1ccc(S(=O)(=O)NCC(=O)N2CCC(C)CC2)cc1
 : -0.3	-4	.	0.72	48*	-0.4	11	2	0.7	i

Next section.
Every second line gives: UCH37 DUB inh	T cruzi repl	Beta cell apopt	Ecoli growth	MLL AF4-AF9 inh	Bfl-1 A1 inh	rRNA inh HTS	rRNA inh HTS OD600	rRNA inh HTS RFP	FGF22 binding
> O=C(O)COc1ccc(S(=O)(=O)N2CCCC2)cc1
 : 4.1	-1	-11	0.68	3.1	-0.3	14	-2	1.5	i
> O=C(COC(=O)c1c2ccccc2cc2ccccc12)Nc1ncc(C(F)(F)F)cc1Cl
 : -348	2	1	0.73	.	.	.	.	.	.
> CCN(CC)C(=O)CN(C)S(=O)(=O)c1cccc2nsnc12
 : 6.1	-4	0	0.71	.	-0.3	.	.	.	.
> Cc1ccc(S(=O)(=O)N(C)C)cc1NC(=O)Nc1ccccc1F
 : 3.2	-2	-9	0.68	-4.5	-0.6	6	12	-1.2	i
> Cc1ccc(-c2ccc(=O)n(CC(=O)Nc3cccc(C(=O)N4CCN(C)CC4)c3)n2)cc1
 : -0.7	7	.	0.73	.	-0.4	.	.	.	.
> C=CCN1c2ccccc2[C@]23C[C@@H](C(=O)OC)N(C(C)=O)C2=NC(C(=O)OC)=C(C(=O)OC)[C@H]13
 : -1.7	-12	-7	.	.	-0.2	.	.	.	.
> O=C(NCCCN1CCOCC1)c1cc(-c2ccco2)nc2ccccc12
 : i	.	1	0.7	-17	0.0	6	14	-1.7	i
> CC(=O)NN1C(=O)/C(=C\c2ccc(O)cc2)SC1=S
 : 9.0	14	7	0.62	1.5	-5.2	-8	29	9.3	.
> Cc1ccc(NC(=O)CSCC(=O)N(C)Cc2ccc(Cl)c(Cl)c2)cc1
 : 6.3	.	-5	0.65	8.6	0.0	-37	-70	-6.9	i
> CN1C(=O)CC(c2ccccc2)C1=O (centres undefined)
 : 3.4	.	-1	0.68	-4.2	-0.1	4	13	3.1	i
> CCN(CC(=O)Nc1ccc(C)c(F)c1)CC(=O)NC(C)C
 : 0.1	4	1	0.69	0.7	0.0	18	7	4.5	.
> CCN(CC)CCNCc1cc(Br)ccc1OCC(=O)NCc1ccccc1
 : 5.0	16	3	0.67	2.4	0.6	19	11	7.0	.
> COc1cc2c(cc1O)CC[C@@H]1[C@@H]2CC[C@]2(C)[C@@H](O)CC[C@@H]12
 : 4.7	2	11	.	-0.1	0.6	.	.	.	.
> CCc1ccc(NC(=O)Cn2nc(C)c([N+](=O)[O-])c2C)cc1
 : 2.1	1	-6	0.69	6.6	0.0	11	12	0.8	.
> CC1(C(=O)O)COC(c2ccc([N+](=O)[O-])cc2)OC1 (centres undefined)
 : 3.1	-1	-5	0.67	.	-0.2	.	.	.	.
> CCN1CCN(C(=O)CN(CC)S(=O)(=O)c2ccc(Cl)cc2)CC1
 : 0.8	1	-8	0.73	.	1.4	.	.	.	.
> COc1ccc(C2=COc3ccccc3C(=O)N2)cc1
 : 4.4	-4	-6	0.69	-0.4	-1.6	-22	-20	0.2	i
> COc1cc(C(c2c(C)[nH][nH]c2=O)c2c(C)[nH][nH]c2=O)ccc1OCc1ccc([N+](=O)[O-])cc1
 : 5.3	31	2	0.67	.	-1.0	.	.	.	.
> Cc1ccc(CN=C2NC(=O)C(CC(=O)NCCc3ccccc3)S2)cc1 (centres undefined)
 : 2.6	-1	-6	0.69	.	-0.8	.	.	.	.
> O=C(Nc1nc(-c2ccc(S(=O)(=O)N3CCCC3)cc2)cs1)C1COc2ccccc2O1 (centres undefined)
 : 6.9	30	15	0.76	.	-0.1	.	.	.	.
> COc1c(N)c2ccccc2[nH]c1=O
 : .	4	-5	0.69	.	-0.1	.	.	.	.
> O=C(CNC(=O)c1ccc(N2CCCC2=O)cc1)Nc1ccc(F)c(F)c1F
 : 0.5	.	0	0.69	-1.0	0.1	3	10	7.9	i
> CCOCCCNC(=O)c1c(C)[nH]c(C(=O)OCC)c1C
 : 2.7	-8	1	0.63	.	0.4	.	.	.	.

Some of the compounds tested; the hit share may differ from the screen's.
